Screens (PubChem BioAssay)
D2 PAM: potentiates the human D2 dopamine receptor allosterically | DiscoveRx D2 beta-arrestin cells, luminescence, 90 min; 100% = 57 uM dopamine signal | AID 624464 | potentiation, % (no concentration beside the values) | 0.23% of 360,000 active; active = potentiation of 50% or more; inconclusive = 30% to 50%; inactive = 30% or less;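 also: compound concentration not given in the record; tested on top of an EC20 dose of dopamine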
Target sequence (P14416 whole entry, looked up): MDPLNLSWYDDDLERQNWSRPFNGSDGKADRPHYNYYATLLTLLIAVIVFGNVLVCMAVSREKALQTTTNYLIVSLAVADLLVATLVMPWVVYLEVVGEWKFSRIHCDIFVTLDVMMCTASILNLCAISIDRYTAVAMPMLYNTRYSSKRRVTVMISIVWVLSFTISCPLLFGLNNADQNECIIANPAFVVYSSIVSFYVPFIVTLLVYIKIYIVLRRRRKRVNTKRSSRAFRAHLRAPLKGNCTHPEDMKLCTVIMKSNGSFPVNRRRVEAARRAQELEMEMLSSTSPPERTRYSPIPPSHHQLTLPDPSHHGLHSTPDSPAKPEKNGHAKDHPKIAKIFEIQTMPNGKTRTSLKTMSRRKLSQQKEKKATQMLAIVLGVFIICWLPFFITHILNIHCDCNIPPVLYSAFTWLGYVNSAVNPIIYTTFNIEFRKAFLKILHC
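PathHunter beta-arrestin assay in DiscoveRx D2 cells. Compounds were added with an EC20 of dopamine (50 nM final) for 90 min at 37 deg C. Luminescence was read 1 h after detection reagent, with 57 uM dopamine as the EC100 control.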
TRPML1 ag: human mucolipin-1 channel agonism | Q9GZU1 | TRPML1-expressing cells, Ca2+ dye fluorescence, FDSS; host cell line not named in the record; reference of the full effect not given here | activation, % (test concentration not listed) | 0.12% of 410,000 active | AID 624414; in the data active = activation above about 50%; inconclusive = about 30% to 50%; inactive = below about 30%; also: 0% is about no effect; the text of the record puts the active cut at 80%
Target sequence (Q9GZU1 whole entry, looked up): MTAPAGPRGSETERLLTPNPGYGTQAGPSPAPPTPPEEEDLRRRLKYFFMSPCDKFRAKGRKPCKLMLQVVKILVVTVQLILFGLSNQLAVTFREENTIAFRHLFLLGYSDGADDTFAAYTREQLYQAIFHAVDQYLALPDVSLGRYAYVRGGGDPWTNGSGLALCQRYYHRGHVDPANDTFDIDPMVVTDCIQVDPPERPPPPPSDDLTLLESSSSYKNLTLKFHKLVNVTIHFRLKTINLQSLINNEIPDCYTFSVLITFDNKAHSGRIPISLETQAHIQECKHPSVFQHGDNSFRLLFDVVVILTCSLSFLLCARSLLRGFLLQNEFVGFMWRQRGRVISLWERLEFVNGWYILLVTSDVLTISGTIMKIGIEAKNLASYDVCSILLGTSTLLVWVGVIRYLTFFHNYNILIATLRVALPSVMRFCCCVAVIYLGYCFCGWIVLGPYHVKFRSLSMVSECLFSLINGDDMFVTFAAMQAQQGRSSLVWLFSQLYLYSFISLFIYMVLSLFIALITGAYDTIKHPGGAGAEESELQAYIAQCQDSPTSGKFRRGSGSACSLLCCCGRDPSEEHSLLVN
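Tet-induced TRPML1-DL cells, 1,500 per well, cultured overnight, were loaded with a no-wash Ca2+ dye for 45–90 min. Calcium fluorescence was recorded on the FDSS for 110 s after compound addition, before the EC80 agonist (4 uM 54-4) was added.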
TRPV1 PAM: human TRPV1 potentiation; Q8NER1; 0.02% of 320,000 active; TRPV1-expressing cells, Fluo-8 calcium influx, capsaicin EC20 potentiation; host cell line not named in the record; control for the full effect not named in the record; AID 540277; potentiation, % at 8.33 µM; active means potentiation above 80%; inconclusive means 30% to 80%; inactive means below 30%; also: 0% is about no effect
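Cells expressing TRPV1 were dye-loaded with Fluo-8 and read kinetically: 10 s baseline, 3 min after compound (agonist portion), then 2 min after EC20 capsaicin (allosteric enhancer portion). Calcium-bound dye fluorescence at 480/520 nm.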
Six1-Eya2 blk: inhibitors of human Six1/Eya2 interaction; Q15475+O00167; AlphaScreen GST-Six1/His-Eya2 binding, biochemical; active compounds read low; control for the full effect not named in the record; activity change, % (test concentration not listed); 0.56% of 360,000 active; in the data active = activity change below about -65%; inconclusive = about -30% to -65%; inactive = above about -30%; also: % is scaled to controls: 0 for no effect and ±100 for the full control effect
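Compounds are tested against tagged Six1 and Eya2 proteins bridged by glutathione donor and nickel acceptor beads; after a one-hour incubation at 37 °C without light, AlphaScreen emission is recorded.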
TRPML1 blocker: blocks the human TRPML1 channel | Q9GZU1 | TRPML1-inducible cells, Ca2+ dye fluorescence, FDSS; active compounds read low; inhibition of EC80 agonist-evoked calcium signal | activity change, negative = inhibition, % (no concentration beside the values) | 0.02% of 390,000 active; in the data active means activity change below about -50%; inconclusive means about -30% to -50%; inactive means above about -30%;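 also: stimulus is agonist 54-4 at its EC80 concentration; % is scaled to controls: 0 for no effect and ±100 for the full control effect; compound concentration not given in the record; the text of the record puts the active cut at -80%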
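TRPML1-DL cells, Tet-induced overnight (~16 h, 37 °C) at 1,500 cells/well, were loaded with Ca8 no-wash dye plus quencher for 45-90 min at room temperature. Compounds were pinned during FDSS kinetic reading; agonist 54-4 at EC80 (4 uM final) then added.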
CtBP-E1A blk: blocks the CtBP interaction with E1A | AlphaScreen GST-E1A/His-CtBP binding, 1536-well; active compounds read low; control for the full effect not named in the record | activity change, % (concentration not given with the values) | 0.49% of 340,000 active | AID 651724; in the data active means activity change below about -65%; inconclusive means about -30% to -65%; inactive means above about -30%; also: % is scaled to controls: 0 for no effect and ±100 for the full control effect
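Protein mix (5X: 125 nM each GST-E1A, His-CtBP) was incubated with pinned compound 2 h at 37 deg C in dark, in 50 mM Tris pH 8.0 buffer with 300 mM NaCl. Glutathione donor and nickel acceptor beads followed; AlphaScreen signal read after 1 h.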
Starred values were filed as active, the others as inactive; ? = inconclusive; . = not tested or not shown.

structure | Six1-Eya2 blk | TRPV1 PAM | CtBP-E1A blk | D2 PAM | TRPML1 blocker | TRPML1 ag
CCCCn1nc2cc(C(=O)NCc3ccccc3)ccc2c1OCC | 5 | 0 | 5 | -10 | -13 | -0.4
CC(=O)Nc1cc(-c2ccsc2)cn2c(-c3ccc(F)cc3)cnc12 | -11 | . | -7 | -16 | . | -0.3
COc1ccc(S(=O)(=O)Nc2ccc(Cl)cn2)cc1 | 0 | 4 | 13 | -9 | 1 | -0.7
O=S(=O)(NCCc1csc(-c2cccnc2)n1)c1ccc(F)cc1 | -5 | 5 | -4 | 6 | -4 | 0.4
CCn1ncc(/C=C/C(=O)C2CC2)c1C | -3 | 0 | -16 | 0 | 2 | -0.1
Nc1ccc(NC(=O)c2cccs2)c(Cl)c1 | -1 | 8 | -4 | -4 | 7 | 0.7
O=C(O)c1cc(-c2cccc3ccccc23)nc2ccccc12 | 6 | 30 | 4 | 1 | 4 | 0.7
COc1ccc(NC(=O)CNc2cc(S(=O)(=O)N3CCOCC3)ccc2N2CCOCC2)c(OC)c1 | 0 | . | 7 | -1 | -7 | -0.7
Cc1c(C)n(Cc2ccccc2)c2ccc(C(=O)NCCN3CCOCC3)cc12 | -13 | -20 | -13 | -21 | 3 | 0.1
CCOC(=O)CCSc1nc(C)c2cc(C)ccc2n1 | 20 | -11 | 22 | -16 | 16 | 1.1
CCCC(=O)Nc1nn(C)c2nc3c(C)cccc3cc12 | 1 | 21 | 3 | -1 | 5 | -1.6
Cc1ccc(NC(=O)OCCNC(=O)c2ccncc2)cc1 | -2 | -12 | 9 | -7 | 9 | -1.0
Fc1ccc(-c2nnc(Cc3nnc(-c4ccc(F)cc4)o3)o2)cc1 | 2 | 14 | 4 | -2 | -3 | 0.8
NC(=O)CC(NC(=O)c1ccccc1)c1ccc(NCCOc2ccccc2)c([N+](=O)[O-])c1 (configuration not stated) | -13 | 6 | . | -12 | -18 | -0.5
O=C1NC(=S)NC1=Cc1ccccc1O | -7 | . | -6 | -1 | 0 | 20
CSc1nc2ccc(NC(=O)c3c(-c4ccccc4)noc3C)cc2s1 | 5 | 6 | -12 | -1 | -10 | 0.6
CC(C)COc1ccc(-c2nnn(CC(=O)N3CCCC3)n2)cc1 | 3 | ? | -1 | 9 | -11 | 0.1
CN(c1ccccc1)S(=O)(=O)c1cccc(NC(=O)Cc2ccc(Cl)cc2)c1 | 0 | -3 | 4 | 5 | 3 | -0.1
Cc1nn2c(NCCCN(C)C)c3c(nc2c1-c1ccccc1)CCCC3 | -3 | -5 | -4 | -19 | 11 | 0.2
CNC[C@H]1Oc2c(NS(=O)(=O)c3ccc(OC)cc3)cccc2C(=O)N([C@H](C)CO)C[C@H]1C | 0 | . | 4 | -4 | -19 | 0.1

Further compounds:
structure | Six1-Eya2 blk | TRPV1 PAM | CtBP-E1A blk | D2 PAM | TRPML1 blocker | TRPML1 ag
CC[C@]1(c2ccccc2OC)C(=O)N(C(=O)OC)N1C(=O)OC | 0 | 21 | -2 | -16 | -7 | -1.0
CC/C(=N\Nc1ccnc2cc(Cl)ccc12)c1ccc(O)cc1 | 4 | -3 | -7 | -17 | 31 | 2.3
Cc1nc(Nc2ccccc2F)c2nnn(Cc3ccccc3Cl)c2n1 | 2 | -1 | . | 0 | 37 | -0.9
Cc1ccc(C23CC4CC(CC(C(=O)NN)(C4)C2)C3)cc1 | 4 | -3 | -10 | -7 | 2 | -0.1
COc1ccc(F)cc1C(=O)C1CCCN(C(=O)c2cccc(N(C)C)c2)C1 (configuration not stated) | -12 | -6 | -17 | -2 | 1 | 1.0
CN1CCN(C(=S)SCC(=O)N2CCCc3ccccc32)CC1 | -1 | 1 | -1 | -32 | -4 | 0.4
Cc1cccc(C)c1NC(=O)C(NC(=O)CN1C(=O)c2ccccc2C1=O)c1ccccc1 (configuration not stated) | 14 | -7 | 1 | -1 | 5 | -0.6
COc1ccc(/C=N/O)cc1COc1ccc(NC(C)=O)cc1 | 1 | 0 | 0 | -6 | 4 | -0.4
O=C(O)c1ccccc1N1C(=O)C2C3CCC(C3)C2C1=O (configuration not stated) | 2 | 0 | -1 | -3 | 10 | 0.0
NC(=O)c1ccccc1NC(=O)/C=C/c1ccccc1 | -2 | -16 | 4 | 5 | 9 | 4.6
Cn1c(SCC(=O)NCC2CCCO2)nnc1-c1c[nH]c2ccccc12 (configuration not stated) | -1 | ? | 3 | -2 | 6 | -0.1
CC1CCCCC1NC(=O)c1nnc(Cc2ccc(Cl)cc2)o1 (configuration not stated) | 6 | -7 | 3 | -1 | 20 | 1.3
NC(=O)CC[C@@H]1NC(=O)[C@@H]2CCCN2C(=O)c2cc([N+](=O)[O-])cc(I)c2NCCC[C@@H](C(=O)NC(CC(=O)O)C(N)=O)NC1=O (some centres not stated) | 2 | -2 | 3 | -4 | 0 | -0.1
O=C(NCc1ccccc1Cl)c1csc([C@@H]2O[C@H](CO)[C@@H](O)[C@H]2O)n1 | -1 | . | 2 | -12 | . | -0.2
CC(C)C(=O)NNC(=O)c1csc(CS(=O)(=O)c2ccc(Cl)cc2)n1 | 5 | 2 | 6 | -1 | 16 | -0.5
O=S(=O)(c1ccsc1)N1CC=C(c2ccccc2)CC1 | 2 | 0 | -1 | -5 | 31 | 2.5
Cc1cc(NS(=O)(=O)c2ccc(C(C)C)cc2)no1 | 10 | -1 | 5 | -10 | ? | -0.2
CCn1c(=O)c([N+](=O)[O-])c(NCCN(C)C)c2ccccc21 | -3 | 16 | 2 | -15 | ? | 1.6
Cc1cc(=O)n2nc(N3CCC(C(=O)Nc4cccc(Cl)c4C)CC3)sc2n1 | -11 | 1 | -12 | -8 | 7 | -0.6
O=c1oc2ccccc2n1Cc1cccc(F)c1 | 8 | -5 | . | -13 | -6 | 2.0

Later entries.
structure | Six1-Eya2 blk | TRPV1 PAM | CtBP-E1A blk | D2 PAM | TRPML1 blocker | TRPML1 ag
CCCCCC(=O)Nc1nc2ccccc2[nH]1 | 21 | 0 | 32 | -12 | -7 | 0.1
CCc1cc2cc3c(cc2nc1SCC(=O)Nc1c[nH]c(=O)[nH]c1=O)OCO3 | -11 | -9 | 4 | -4 | 35 | 0.0
CCc1nc2c(OCC(=O)C(C)(C)C)cccn2c1N(C)C(=O)c1ccccc1F | -3 | . | 1 | -5 | 22 | 0.9
CCNC(=O)C(CCSC)NS(=O)(=O)c1ccc(C)cc1 (configuration not stated) | 1 | 1 | 2 | -8 | 0 | 0.5
O=C(Nc1cc(S(=O)(=O)N2CCOCC2)ccc1Cl)c1ccncc1 | -2 | . | -4 | -11 | 6 | -0.3
COc1cc(C[C@H](C)[C@H](C)Cc2ccc3c(c2)OCO3)ccc1O | -18 | -2 | -13 | 3 | 9 | 5.3
CCOC(=O)c1c(-c2ccc(C)o2)csc1N | -19 | -7 | -11 | -6 | 18 | 1.9
O=C(O)CC1SC(=O)N(CC(=O)c2ccccc2)C1=O (configuration not stated) | 3 | 8 | 10 | -6 | 3 | -0.2
COc1cccc(OC)c1Nc1nc(C)nc2c1nnn2Cc1ccccc1Cl | 0 | 17 | -2 | 1 | -10 | 0.1
COC(=O)\C(C(C)=O)=C(/C=C/C=C/C=C/N(C)C)N(C)C | ? | -5 | 1 | 1 | -12 | -0.6
CCn1nc(CC(=O)Nc2nnc(CC(=O)N3CCCCC3)s2)c2ccccc2c1=O | 2 | -9 | 8 | -1 | 15 | 1.2
COc1ccccc1N1CCN(C(=O)c2cc3n(n2)C(C(F)(F)F)CC(c2ccco2)N3)CC1 (configuration not stated) | 7 | -5 | 0 | 1 | -6 | 1.1
O=Cc1ccc(OCC(=O)NCC2CCCO2)cc1 (configuration not stated) | -8 | 0 | 3 | -7 | 32 | 0.3
COCCCn1c(SCC(=O)Nc2ccc(C(=O)OC)cc2)nc2ccccc2c1=O | 2 | -1 | 3 | 1 | 13 | 0.3
COc1ccc(C(C)(NC(C)=O)c2nc(-c3cccc4cccnc34)cs2)cc1 (configuration not stated) | -7 | . | 0 | -4 | . | -0.4
O=C(c1ccc(Cl)c([N+](=O)[O-])c1)N(Cc1ccc(Cl)cc1)C1CCS(=O)(=O)C1 (configuration not stated) | -10 | 3 | -10 | 10 | -3 | 0.9
COc1ccc(C(=O)NC(=O)N2CCCCC2)cc1 | 6 | -1 | -1 | 3 | 8 | 1.3
CC1(C(=O)O)CCC(C(=O)NNC(=O)c2ccccc2Cl)C1(C)C (configuration not stated) | 0 | . | -65* | -7 | 6 | 0.3
COCCSc1nnc(NC(=O)C2CC(=O)N(c3ccccc3)C2)s1 (configuration not stated) | 8 | -8 | -3 | -7 | 42 | 0.2
Cc1sc(NC(=O)CN2CCCC2)nc1-c1ccc2c(c1)CCN2C(=O)c1ccc(F)cc1 | -28 | -22 | -13 | 1 | 11 | -0.6

Structural class, those above containing an aryl methoxy group.
structure | Six1-Eya2 blk | TRPV1 PAM | CtBP-E1A blk | D2 PAM | TRPML1 blocker | TRPML1 ag
COc1ccc(S(=O)(=O)Nc2ccc(Cl)cn2)cc1 | 0 | 4 | 13 | -9 | 1 | -0.7
COc1ccc(NC(=O)CNc2cc(S(=O)(=O)N3CCOCC3)ccc2N2CCOCC2)c(OC)c1 | 0 | . | 7 | -1 | -7 | -0.7
CNC[C@H]1Oc2c(NS(=O)(=O)c3ccc(OC)cc3)cccc2C(=O)N([C@H](C)CO)C[C@H]1C | 0 | . | 4 | -4 | -19 | 0.1
CC[C@]1(c2ccccc2OC)C(=O)N(C(=O)OC)N1C(=O)OC | 0 | 21 | -2 | -16 | -7 | -1.0
COc1ccc(F)cc1C(=O)C1CCCN(C(=O)c2cccc(N(C)C)c2)C1 (configuration not stated) | -12 | -6 | -17 | -2 | 1 | 1.0
COc1ccc(/C=N/O)cc1COc1ccc(NC(C)=O)cc1 | 1 | 0 | 0 | -6 | 4 | -0.4
COc1cc(C[C@H](C)[C@H](C)Cc2ccc3c(c2)OCO3)ccc1O | -18 | -2 | -13 | 3 | 9 | 5.3
COc1cccc(OC)c1Nc1nc(C)nc2c1nnn2Cc1ccccc1Cl | 0 | 17 | -2 | 1 | -10 | 0.1
COc1ccccc1N1CCN(C(=O)c2cc3n(n2)C(C(F)(F)F)CC(c2ccco2)N3)CC1 (configuration not stated) | 7 | -5 | 0 | 1 | -6 | 1.1
COc1ccc(C(C)(NC(C)=O)c2nc(-c3cccc4cccnc34)cs2)cc1 (configuration not stated) | -7 | . | 0 | -4 | . | -0.4
COc1ccc(C(=O)NC(=O)N2CCCCC2)cc1 | 6 | -1 | -1 | 3 | 8 | 1.3

More records follow:
structure | Six1-Eya2 blk | TRPV1 PAM | CtBP-E1A blk | D2 PAM | TRPML1 blocker | TRPML1 ag
CCn1c(=O)cc(SCC(=O)NCc2cccnc2)c2ccccc21 | -10 | -8 | -7 | -4 | -4 | 0.4
Cc1cccc(-c2nc(CS(=O)CC(=O)NCCCSC3CCCCC3)c(C)o2)c1 (configuration not stated) | -10 | -16 | -1 | -8 | -17 | 2.5
CCCCN(C=O)c1c(CC)nc2ccc(C(=O)NCCc3ccccn3)cn12 | 0 | . | 3 | -7 | . | -0.6
Cc1ccc(CNC(=O)C2CCCN(c3nc(C)cc(C)n3)C2)cc1 (configuration not stated) | 4 | 6 | 4 | -8 | 33 | 0.4
